Screening data as filed in PubChem.
GLA inh pH 4.5 = inhibitors of human alpha-galactosidase A at pH 4.5; P06280; activity change, negative = inhibition, % at 105 µM; 230,000 tested, under 10 active; purified enzyme, 4-MU-alpha-Gal fluorescence, pH 4.5; inconclusive = small, poorly fitted or top-dose-only inhibition, or a rising curve; inactive = flat fitted curve, though single readings scatter; no compound was filed as active;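 also: 0% = full activity with enzyme and -100% = basal without enzyme; dose as in the result columns while the protocol names 77 µM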
Rango complex inh = Rango-importin beta binding inhibition. Q14974. Rango CFP/YFP FRET sensor + importin beta, 45 min. Potency, µM (titrated, usually from 92.2 µM), without a hit: at the top dose inhibition of complex formation. 340,000 compounds, 0.031% hits. AID 540263; active = rising FRET ratio curve, often small or poorly fitted; inconclusive = mostly compound fluorescence or quenching in the first reads; inactive = flat curves in all reads;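 also: potency is read from the fitted curve at half-maximal effect; 0% = DMSO wells and 100% = buffer wells lacking importin beta; nearly all actives have a fitted effect of over 15% in size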
Target sequence (Q14974 whole entry, looked up): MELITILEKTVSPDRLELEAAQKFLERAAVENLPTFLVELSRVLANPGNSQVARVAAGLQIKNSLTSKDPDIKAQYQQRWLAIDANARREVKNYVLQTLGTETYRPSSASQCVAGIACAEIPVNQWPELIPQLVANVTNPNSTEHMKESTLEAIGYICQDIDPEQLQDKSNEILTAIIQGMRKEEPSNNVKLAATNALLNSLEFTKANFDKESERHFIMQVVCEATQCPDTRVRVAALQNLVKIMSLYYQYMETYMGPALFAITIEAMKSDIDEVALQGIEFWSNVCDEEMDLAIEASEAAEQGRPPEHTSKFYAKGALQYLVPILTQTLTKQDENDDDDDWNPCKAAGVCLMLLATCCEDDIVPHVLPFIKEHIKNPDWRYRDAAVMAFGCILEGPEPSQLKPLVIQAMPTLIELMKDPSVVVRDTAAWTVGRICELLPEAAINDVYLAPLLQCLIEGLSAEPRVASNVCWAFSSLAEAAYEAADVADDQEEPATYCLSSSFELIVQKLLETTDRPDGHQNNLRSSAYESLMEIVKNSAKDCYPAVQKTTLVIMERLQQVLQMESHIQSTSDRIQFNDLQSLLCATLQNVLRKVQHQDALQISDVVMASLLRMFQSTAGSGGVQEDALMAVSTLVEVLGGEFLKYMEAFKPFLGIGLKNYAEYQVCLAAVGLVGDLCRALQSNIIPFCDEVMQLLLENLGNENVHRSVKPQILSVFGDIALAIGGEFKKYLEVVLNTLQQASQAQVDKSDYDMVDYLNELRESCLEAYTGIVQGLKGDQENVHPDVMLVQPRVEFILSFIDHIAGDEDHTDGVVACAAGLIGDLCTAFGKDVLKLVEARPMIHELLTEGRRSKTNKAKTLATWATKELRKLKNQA
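Inhibition scored from the CFP 486 nm/YFP 530 nm FRET ratio 45 min after adding 0.125 microM importin beta to 50 nM Rango biosensor preincubated 5 min with compound (room temperature, PBS with DTT, Tween-20, BSA). No-importin wells as positive control.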
Rango dissoc inh = prevents RanGTP from dissociating the Rango-importin beta complex | O95149+P62826 | Biochemical FRET Rango-importin beta, RanGTP-induced dissociation | 340,000 compounds, 0.071% hits | Potency, µM (highest dose often 46.1 µM), for the others: at the highest dose activity change, negative = inhibition; active means falling FRET ratio curve, often poorly fitted, with flat reads before Ran was added; inconclusive means other falling curves, or compound fluorescence or quenching; inactive means flat or rising ratio curve;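 also: potency is read from the fitted curve at half-maximal effect; % of control where 0% means no effect; nearly all actives have a fitted effect of over 45% in size; -100% = wells without RanGTP and RCC1; the record marks most hits as doubtful in a second field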
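Rango/importin beta premix (0.1/0.25 uM final), PBS + 1 mM DTT + 0.02% Tween-20 + 0.1% BSA; cpd 5 min RT; FRET pre-read; + RanGTP-RCC1 (0.6 uM Ran, 2 mM GTP, 0.2 uM RCC1); 45 min RT; FRET post-read, ex 430, em 486/530 nm.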
miR-21 FLuc = miR-21 reporter, rising signal | HeLa miR-21 FLuc reporter, luciferase, 48 h | 340,000 tested, under 10 active | Potency, µM (top dose mostly 38.3 µM), inactives show at the top dose reporter change, positive = more light | AID 2288; active = well fitted rising curve with a large enough effect; inconclusive = small, poorly fitted or top-dose-only effect; inactive = no such curve, though single readings can be large or run the other way;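 also: % of control where 0% means no effect; miR-21 action dims this reporter so a rising signal means less miR-21 action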
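HeLa cells endogenously expressing miR-21, stably carrying CMV-driven firefly luciferase with a downstream miR-21 binding site, 2000 cells/well. Titrations up to approximately 40 uM, 48 hours; luciferase luminescence read.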
Active calls of the source: *; u = inconclusive; x = not tested or not shown. These rows are one share of the data; the hit share may differ from the screen's.

| GLA inh pH 4.5 | Rango complex inh | Rango dissoc inh | Compound | miR-21 FLuc |
| --- | --- | --- | --- | --- |
| x | -1.0% | -6% | COc1ccc(N(CC(=O)NCCc2ccc(OC)c(OC)c2)S(=O)(=O)c2ccc(OC)c(OC)c2)cc1 | -1% |
| -10 | -5.6% | 18% | CCN(CCNC(=O)CS(=O)(=O)Cc1nc(-c2cccc(OC)c2)oc1C)c1ccccc1 | -2% |
| -6 | 2.4% | -7% | C#CC(C)(C)NC(=O)CSc1nc2c(c(=O)n(C)c(=O)n2C)n1CCCC | -3% |
| x | 0.7% | 5% | Cc1csc(N2CCCC2c2nc3cc(Cl)c(N4CCCCC4)cc3n2CCCO)n1 (stereo not given) | x |
| x | -0.8% | -3% | Cc1ccc(-c2nnc(CN3CCCCC3C)o2)cc1 (stereo not given) | -28% |
| 2 | -3.1% | -25% | COCCNc1nc(-c2cc(C)n(CCc3ccc(OC)cc3)c2C)cs1 | 1% |
| -10 | -2.1% | 19% | COc1cccc(-n2c(CN3CCN(c4ccc(C)cc4)C(C)C3)nc3ccc([N+](=O)[O-])cc3c2=O)c1 (stereo not given) | -4% |
| -1 | 0.5% | 24% | COc1ccc(OCCCC(=O)Nc2nnc(C3CCCO3)s2)cc1 (stereo not given) | -3% |
| -7 | 4.1% | -6% | CC(C)N(C(=O)NC(=O)NCC1CCCO1)S(C)(=O)=O (stereo not given) | -6% |
| -6 | 0.5% | u | CC1=NN(c2cccc([N+](=O)[O-])c2)C(=O)C1 | -1% |
| -4 | -3.1% | -18% | COc1cccc(CN2CCNC(=O)C2CC(=O)NCCOc2cccnc2)c1OC (stereo not given) | -4% |
| 1 | 7.0% | -9% | O=C(NCCc1c[nH]c2ccccc12)Nc1cccc2ccccc12 | 0% |
| 1 | 0.3% | 5% | O=C(O)CNS(=O)(=O)c1cccc(Cl)c1 | -11% |
| x | -1.3% | -4% | CC1=C(C(=O)OC2CCCC(C)C2)C(c2ccccc2)NC(=O)N1 (stereo not given) | 8% |
| -19 | 6.1% | -15% | O=C(NCCCn1ccnc1)c1nn2c(C(F)(F)F)cc(-c3ccc(Br)cc3)nc2c1Cl | -28% |
| -6 | -6.7% | 6% | C=CCN(N=Nc1cccc([N+](=O)[O-])c1)c1cccc([N+](=O)[O-])c1 | -2% |
| -3 | -2.5% | -10% | COc1ccc2c(c1)OC13CCCCC1C2C(C(=O)c1ccccc1)C(=O)N3 (stereo not given) | -3% |
| x | -0.6% | -5% | CCCc1cc(=O)oc2cc(C)cc(OCC(=O)NCc3ccncc3)c12 | -1% |
| x | 0.0% | 21% | Cc1ccc(NC2CNC(=O)NC2=O)cc1C (stereo not given) | x |
| 12 | 7.0% | u | Cc1ccc(C2NC(=O)c3c(sc(C)c3C)N2)c(O)c1 (stereo not given) | -34% |
| -8 | -1.0% | -5% | Cc1ccc(/C=N/NC(=O)CN2CCN(S(=O)(=O)c3ccc(Br)cc3)CC2)s1 | -11% |
| x | 1.2% | 14% | Cc1c(NC(=O)COc2cccc(Cl)c2Cl)c(=O)n(-c2ccccc2)n1C | x |
| -4 | -2.6% | 14% | CC1CCc2nn(CC(=O)NCCN3CCOCC3)cc2C1 (stereo not given) | 0% |
| x | 0.3% | 6% | O=C(Cc1cccc(NC(=O)C2CCCN(C(=O)c3ccccc3)C2)c1)Nc1cccc(C(=O)N2CCOCC2)c1 (stereo not given) | x |
| x | 4.6% | 13% | Cc1cc(-c2ccc(C)c(S(=O)(=O)NC(C)Cc3ccco3)c2)on1 (stereo not given) | -2% |
| -14 | 1.3% | 8% | COc1ccc(Nc2ccc(S(=O)(=O)N3CCCCC3)cc2[N+](=O)[O-])cc1 | -3% |
| x | 3.2% | 3% | O=C(Cc1ccccc1)NC(CSSCC(NC(=O)Cc1ccccc1)C(=O)O)C(=O)O (stereo not given) | x |
| 7 | -5.7% | -5% | COc1ccc2[nH]cc(CCN=C3SCC(=O)N3C)c2c1 | -17% |
| -8 | -1.1% | -24% | Cc1ccccc1OCC(=O)NNC(=O)CCN1C(=O)c2ccccc2C1=O | -1% |
| -5 | 1.4% | -10% | Cc1cccc(NC(=O)c2cccnc2)c1 | -24% |
| -3 | -3.6% | 1% | C=C(C)C(=O)Nc1ccc(OC(F)(F)C(F)F)c(NC(=O)C(=C)C)c1 | -4% |
| x | -1.4% | -3% | NC(=O)NC[C@@H]1CC[C@@H](Cc2ccc(-c3ccccc3)cc2)O1 | x |
| -5 | -3.6% | 2% | COc1ccc(C2/C(=C(/O)c3ccccc3)C(=O)C(=O)N2CCO)cc1 (stereo not given) | -1% |
| -5 | -2.0% | -7% | S=c1[nH]nc(-c2cccc(Cl)c2)n1/N=C/c1ccco1 | -8% |
| 1 | -4.4% | -2% | CCOc1ccc(C(=O)Nc2cccc(C(C)=O)c2)cc1[N+](=O)[O-] | -2% |
| x | 8.8% | -18% | O=C(Nc1ccc2c(c1)OCO2)C(=O)c1c[nH]c2ccccc12 | -29% |
| 4 | -2.7% | -17% | CC(C)(C)NC(=O)N1CCn2cccc2C1c1ccccc1F (stereo not given) | 0% |
| x | 0.8% | 9% | CCN(C(=O)COC(=O)COc1ccccc1Cl)c1c(N)n(Cc2ccccc2)c(=O)[nH]c1=O | x |
| -2 | 1.0% | -6% | O=C(O)Cc1ccc(NS(=O)(=O)c2ccccc2Cl)cc1 | -1% |
| -7 | 0.8% | 16% | CC1=CC(=C2C(=O)c3ccccc3C2=O)C=C(C)N1C | -31% |

Part of the list above in order of formula weight, lowest first:
| GLA inh pH 4.5 | Rango complex inh | Rango dissoc inh | Compound | miR-21 FLuc |
| --- | --- | --- | --- | --- |
| 7 | -5.7% | -5% | COc1ccc2[nH]cc(CCN=C3SCC(=O)N3C)c2c1 | -17% |
| x | -1.4% | -3% | NC(=O)NC[C@@H]1CC[C@@H](Cc2ccc(-c3ccccc3)cc2)O1 | x |
| 1 | -4.4% | -2% | CCOc1ccc(C(=O)Nc2cccc(C(C)=O)c2)cc1[N+](=O)[O-] | -2% |

Next section
| GLA inh pH 4.5 | Rango complex inh | Rango dissoc inh | Compound | miR-21 FLuc |
| --- | --- | --- | --- | --- |
| -2 | -0.8% | 7% | N#Cc1ccccc1NC(=O)C1CC(=O)N(c2ccc3c4c(cccc24)CC3)C1 (stereo not given) | -10% |
| 1 | -0.2% | -4% | CCOC(=O)c1nnn(-c2nc(N(C)C)nc(N(C)C)n2)c1C | -3% |
| -5 | -0.9% | 1% | CCn1c(SCC(=O)Nc2ccc3c(c2)OCO3)nc2ccccc21 | -14% |
| 6 | u | u | COc1cc(Br)cc2cc(C(=O)N3CCN(c4ccccn4)CC3)c(=O)oc12 | -1% |
| x | -0.9% | -7% | Cc1cccc(C)c1NC(=O)CN(C)C(=O)c1ccc2nc[nH]c2c1 | x |
| 1 | -1.4% | 11% | COc1ccc(CCN2C(=O)C3C4C=CC(C5CC45)C3C2=O)cc1OC (stereo not given) | 5% |
| -4 | -0.1% | -12% | Cc1ccc(NC(=O)c2ccc(CNS(=O)(=O)c3cccc(C(F)(F)F)c3)cc2)cc1 | -3% |
| 14 | 1.1% | -2% | O=c1[nH]ncc(N2CCCCCC2)c1Cl | -14% |
| x | -1.6% | -2% | CC1(CCc2ccc3c(c2)OCO3)NCCc2c1[nH]c1ccccc21 (stereo not given) | 10% |

A second format for 20 compounds above.
| canonical_smiles | GLA inh pH 4.5 | Rango complex inh | Rango dissoc inh | miR-21 FLuc |
| --- | --- | --- | --- | --- |
| COc1ccc(N(CC(=O)NCCc2ccc(OC)c(OC)c2)S(=O)(=O)c2ccc(OC)c(OC)c2)cc1 | x | -1.0% | -6% | -1% |
| CCN(CCNC(=O)CS(=O)(=O)Cc1nc(-c2cccc(OC)c2)oc1C)c1ccccc1 | -10 | -5.6% | 18% | -2% |
| C#CC(C)(C)NC(=O)CSc1nc2c(c(=O)n(C)c(=O)n2C)n1CCCC | -6 | 2.4% | -7% | -3% |
| Cc1csc(N2CCCC2c2nc3cc(Cl)c(N4CCCCC4)cc3n2CCCO)n1 (stereo not given) | x | 0.7% | 5% | x |
| Cc1ccc(-c2nnc(CN3CCCCC3C)o2)cc1 (stereo not given) | x | -0.8% | -3% | -28% |
| COCCNc1nc(-c2cc(C)n(CCc3ccc(OC)cc3)c2C)cs1 | 2 | -3.1% | -25% | 1% |
| COc1cccc(-n2c(CN3CCN(c4ccc(C)cc4)C(C)C3)nc3ccc([N+](=O)[O-])cc3c2=O)c1 (stereo not given) | -10 | -2.1% | 19% | -4% |
| COc1ccc(OCCCC(=O)Nc2nnc(C3CCCO3)s2)cc1 (stereo not given) | -1 | 0.5% | 24% | -3% |
| CC(C)N(C(=O)NC(=O)NCC1CCCO1)S(C)(=O)=O (stereo not given) | -7 | 4.1% | -6% | -6% |
| CC1=NN(c2cccc([N+](=O)[O-])c2)C(=O)C1 | -6 | 0.5% | u | -1% |
| COc1cccc(CN2CCNC(=O)C2CC(=O)NCCOc2cccnc2)c1OC (stereo not given) | -4 | -3.1% | -18% | -4% |
| O=C(NCCc1c[nH]c2ccccc12)Nc1cccc2ccccc12 | 1 | 7.0% | -9% | 0% |
| O=C(O)CNS(=O)(=O)c1cccc(Cl)c1 | 1 | 0.3% | 5% | -11% |
| CC1=C(C(=O)OC2CCCC(C)C2)C(c2ccccc2)NC(=O)N1 (stereo not given) | x | -1.3% | -4% | 8% |
| O=C(NCCCn1ccnc1)c1nn2c(C(F)(F)F)cc(-c3ccc(Br)cc3)nc2c1Cl | -19 | 6.1% | -15% | -28% |
| C=CCN(N=Nc1cccc([N+](=O)[O-])c1)c1cccc([N+](=O)[O-])c1 | -6 | -6.7% | 6% | -2% |
| COc1ccc2c(c1)OC13CCCCC1C2C(C(=O)c1ccccc1)C(=O)N3 (stereo not given) | -3 | -2.5% | -10% | -3% |
| CCCc1cc(=O)oc2cc(C)cc(OCC(=O)NCc3ccncc3)c12 | x | -0.6% | -5% | -1% |
| Cc1ccc(NC2CNC(=O)NC2=O)cc1C (stereo not given) | x | 0.0% | 21% | x |
| Cc1ccc(C2NC(=O)c3c(sc(C)c3C)N2)c(O)c1 (stereo not given) | 12 | 7.0% | u | -34% |
